Compound activity from PubChem.
Vif A3G: inhibitors of Vif binding to APOBEC3G peptide, primary screen, biochemical, TR-FRET, GST-Vif 1-94, biotin-A3G peptide, dose response retest (AID 1117319); TR-FRET GST-Vif / biotin-A3G peptide binding; higher % means a stronger effect; test concentration not given here; strong numbers were not always called active; inhibition, %, or IC50 in µM where a hit was titrated; actives 0.57% (n = 260,000);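 active = above the screen mean plus three standard deviations and confirmed in dose response; inconclusive = results disagree or hit not tested in dose response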;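 note: Vif residues 1-94 fused to GST binding biotinylated APOBEC3G peptide 110-148; 0% = full assay without inhibitor and 100% = GST in place of GST-Vif; retest series ran down from 100 µM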
Beta2AR agonist: human beta-2 adrenergic receptor agonism by FAP. actives 0.43% (n = 340,000). response, % (concentration not given with the values). P07550. Am2.2-beta2AR cells, FAP receptor internalization, flow cytometry; reference of the scale not given here;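 active = response above a set limit, near 3 SD of response in nonfluorescent compounds, cut at about 42% in these data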;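 note: stock transfer was 100 nL into about 11 µL; a reference agonist was the positive control; negative values mostly stem from fluorescent compounds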
ALR H2O2 inh: human ALR oxidase inhibition via reduced H2O2 | P55789 | purified ALR, DTT oxidation, H2O2 HRP-luminol luminescence | inhibition, % (no concentration beside the values) | actives 3.8% (n = 290,000);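 active = mean and each replicate at 75% or more; inconclusive = only one of the two met; inactive = neither met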;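 note: stock transfer was 7.5 nL into about 7.5 µL; 0% = neutral wells and 100% = wells with inactivated enzyme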
Calb FLC: C. albicans growth modulation with fluconazole; growth inhibition, % (test concentration not listed); C. albicans CaCi-2 (fluconazole-resistant clinical isolate) + fluconazole, Alamar Blue growth, 48 h; actives 0.57% (n = 300,000);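 active = most replicates above 75%; inconclusive = exactly half above 75%; inactive = most below 75%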;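 note: all wells also contain fluconazole at 8 µg/ml as a sub-toxic cotreatment; 0% = median of DMSO wells and 100% = median of geldanamycin control wells; wells of about 8 µL received 7.5 nL stock; the first replicate is given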
RanGTP-Impb inh: inhibitors of RanGTP-importin-beta interaction, primary screen, biochemical, FRET, CFP-Ran, YFP-importin-beta, homogeneous; cell-free CFP-Ran/YFP-importin-beta FRET ratio; inhibition, % (no concentration beside the values); actives 1.1% (n = 300,000);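 active = most replicates above 15%; inconclusive = exactly half above 15%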;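 note: 0% = DMSO wells and 100% = Ran loaded with GDP instead of GTP; wells of about 40 µL received 100 nL stock; the first replicate is given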
HNF4A DNA FP: change in binding of human HNF4 alpha to DNA; P41235; HNF4a-FITC DNA binding, fluorescence polarization, 1 h; activity change, % at 10 µM; actives 0.3% (n = 360,000); AID 1224865; in the data active = activity change above about 30%, passing the limit was not always enough;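 note: controls were the assay level and a saturating level of protein; the project sought stronger binding though the title names inhibitors; some compounds called inactive have numbers as strong as hits; positive values seem to mean higher polarization but the record does not say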
LANA-H2A inh: blocks KSHV LANA binding to histone H2A/H2B. Q9QR71. cell-free LANA-H2A/H2B peptide, fluorescence polarization. inhibition, % (test concentration not listed). actives 0.6% (n = 320,000). AID 2629; in the data active = inhibition mostly above about 10%, no sharp cut-off; inactive = mostly below about 6.7%;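 note: stock transfer was 7.5 nL into about 10 µL; 0% = median of vehicle wells and 100% = median of positive control wells; one replicate is shown; the record names a cut of 25% in any replicate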
Target sequence (Q9QR71 whole entry, looked up): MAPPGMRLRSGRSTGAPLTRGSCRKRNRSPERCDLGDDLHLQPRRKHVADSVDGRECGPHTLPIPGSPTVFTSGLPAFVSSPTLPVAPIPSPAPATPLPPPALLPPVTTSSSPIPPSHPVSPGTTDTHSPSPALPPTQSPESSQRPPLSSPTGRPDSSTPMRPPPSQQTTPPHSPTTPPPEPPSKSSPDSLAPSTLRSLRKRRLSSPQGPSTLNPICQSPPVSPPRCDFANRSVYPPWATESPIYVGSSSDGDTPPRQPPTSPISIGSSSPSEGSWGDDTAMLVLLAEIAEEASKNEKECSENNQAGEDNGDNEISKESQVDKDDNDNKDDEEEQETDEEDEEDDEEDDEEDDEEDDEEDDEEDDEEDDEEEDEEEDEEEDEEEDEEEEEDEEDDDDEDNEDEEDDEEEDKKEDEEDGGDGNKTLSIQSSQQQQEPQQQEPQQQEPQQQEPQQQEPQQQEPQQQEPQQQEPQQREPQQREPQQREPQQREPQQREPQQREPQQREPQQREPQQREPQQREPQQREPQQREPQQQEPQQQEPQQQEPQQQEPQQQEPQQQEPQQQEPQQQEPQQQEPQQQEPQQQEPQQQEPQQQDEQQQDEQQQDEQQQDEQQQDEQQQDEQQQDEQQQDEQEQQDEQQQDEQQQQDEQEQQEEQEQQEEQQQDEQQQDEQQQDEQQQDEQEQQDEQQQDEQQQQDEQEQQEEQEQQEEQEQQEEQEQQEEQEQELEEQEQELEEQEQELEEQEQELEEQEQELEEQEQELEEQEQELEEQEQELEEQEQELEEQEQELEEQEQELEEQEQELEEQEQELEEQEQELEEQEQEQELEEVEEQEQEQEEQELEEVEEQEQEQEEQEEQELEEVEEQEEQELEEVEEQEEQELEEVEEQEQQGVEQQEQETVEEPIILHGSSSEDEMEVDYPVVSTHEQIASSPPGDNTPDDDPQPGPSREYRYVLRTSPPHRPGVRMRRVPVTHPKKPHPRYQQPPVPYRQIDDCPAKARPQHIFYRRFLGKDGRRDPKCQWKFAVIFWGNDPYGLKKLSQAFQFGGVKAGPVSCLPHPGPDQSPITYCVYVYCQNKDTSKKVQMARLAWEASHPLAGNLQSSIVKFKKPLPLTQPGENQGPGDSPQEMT
* hit, by the source's call; ? = inconclusive; / = not tested or not shown.

SMILES | Vif A3G | Beta2AR agonist | ALR H2O2 inh | Calb FLC | RanGTP-Impb inh | HNF4A DNA FP | LANA-H2A inh
CC(C)(C)C(=O)NC(NC(=S)Nc1sc2c(c1C#N)CCCC2)C(Cl)(Cl)Cl (stereo not given) | 3% | 14 | -4 | 8 | 0.4 | -1.4 | -3.4
O=C(NCc1ccco1)C1CCCN1C(=O)Nc1ccc(Br)cc1 (stereo not given) | -1% | -2 | / | -5 | -4.9 | 4.5 | /
COc1ccc(NC(=S)N2CCC(NC(=O)c3cccc(C)c3)CC2)cc1 | -3% | 4 | -1 | -3 | 0.4 | 0.0 | 1.3
COc1ccccc1N1CC(O)=C(c2nc3ccccc3s2)C1=N | -4% | 12 | -10 | 3 | -1.6 | 0.8 | 3.8
O=C(OCc1cc(=O)n2ccsc2n1)c1ccccc1NCCO | 28% | 1 | -5 | / | / | -8.3 | -2.5
CCSc1nnc(NC(=O)c2ccc(C)cc2)s1 | -1% | -10 | -5 | -19 | -2.4 | 1.3 | -3.1
COc1ccc(CN(C)C(=O)C(Cc2ccccc2)NC(=O)c2ccccc2)cc1F (stereo not given) | -2% | 9 | / | / | / | -2.1 | /
O=C(NC1CC2CCCC(C1)N2S(=O)(=O)c1ccccc1)c1ccco1 (stereo not given) | 6% | -8 | -3 | -6 | -2.8 | 2.4 | -0.7
Fc1ccccc1/C=N/Nc1ncnc2nc[nH]c12 | / | -1 | 56 | -8 | -2.8 | 3.5 | -7.6
O=C(NCCC1=CCCCC1)c1ccc2c(=O)n3c(nc2c1)CCCCC3 | -3% | -9 | -1 | 2 | 0.2 | -6.0 | -2.1
CCOc1ccc(OCC(=O)OC(C)C(=O)NC2CCCCC2C)cc1 (stereo not given) | -5% | 6 | -2 | / | / | -1.0 | 0.6
O=C(COC(=O)C1CCC(=O)N1)Nc1cccc([N+](=O)[O-])c1 (stereo not given) | / | 0 | -2 | / | / | -0.2 | 3.3
COCCCN(C(=O)CSCC(=O)Nc1cccc(C)c1)c1c(N)n(Cc2ccccc2)c(=O)[nH]c1=O | 1% | -2 | -5 | -1 | -0.7 | 1.1 | 1.9
O=C(c1cc(C2CC2)nn1-c1ccccc1)N1CCN(Cc2ccccc2F)CC1 | 2% | -1 | / | / | / | 14 | /
C/C(=N\O)C(C)Oc1ccc(Cl)cc1 (stereo not given) | 2% | 7 | 3 | -13 | -3.6 | 4.8 | 2.5
COC(=O)CSc1nc2ccccc2n1CC(=O)N(C(C)C)C(C)C | 28% | 8 | -2 | 0 | 0.2 | -0.7 | 4.5
N=c1c2c(n(Cc3ccc(Br)cc3)c3c1CCC3)CCCC2 | ? | -11 | -10 | 21 | 0.8 | 3.2 | -0.6
CCOc1ccccc1NC(=O)c1ccc2c(c1)C(=O)N(CC)C2=O | -7% | -4 | -2 | -7 | -3.3 | -1.8 | 4.9
CC(=O)N/C(=N/c1nc(C)cc(C)n1)Nc1cc(C)cc(C)c1 | 6% | -9 | -20 | / | 1.5 | -2.4 | 0.8
Cc1cccc(OCC(=O)Nc2nnc(S(=O)(=O)N3CCCCCC3)s2)c1 | / | 4 | 3 | -13 | -2.5 | 0.3 | -4.5
O=C(COC(=O)c1ccc(Br)o1)Nc1cccc(S(=O)(=O)N2CCCCC2)c1 | 0% | -4 | 1 | / | / | 1.0 | 9.4
COc1ccc(Cl)cc1/C=N/NC(=O)c1c(-c2ccccc2)noc1C | / | -2 | -8 | -15 | 0.9 | -0.4 | -4.6
CCN(CC)S(=O)(=O)c1ccc(NC(=O)COC(=O)c2cnc(C)cn2)cc1 | 2% | -3 | -14 | 4 | -4.0 | 4.5 | 5.6
Cc1cc(C)cc(N(CC(=O)Nc2c(C)n(C)n(-c3ccccc3)c2=O)S(C)(=O)=O)c1 | 1% | -2 | -2 | -12 | -37 | 10 | -8.2
Cc1cccc(OCc2nc(-c3nonc3N)no2)c1C | -2% | -6 | -9 | 16 | / | -2.5 | 1.3
COc1cc(Nc2cc(C)nc3ncnn23)cc(OC)c1 | ? | 2 | -1 | 0 | -1.7 | 1.6 | -2.3
CC1CN(C(=O)CCC(=O)NCc2cccnc2)c2ccccc2O1 (stereo not given) | / | 1 | -2 | 33 | 2.7 | 1.5 | -1.1
CC(C)c1ccccc1NC(=O)COC(=O)CNC(=O)c1ccc(Br)cc1 | / | -5 | -2 | -1 | -1.2 | 2.5 | -3.1
COc1ccc(/C=C/C(=O)Oc2ccc(/C=N\NC(=O)c3ccc(F)cc3)cc2)cc1 | -1% | -3 | -9 | 2 | 2.5 | 0.3 | 3.5
CCOc1ccc2nc(SCc3ccc(C(=O)OC)o3)[nH]c2c1 | >100µM* | 1 | 10 | 4 | 1.7 | -1.3 | -2.4
Cc1cc(NC(=O)c2ccccc2)ccc1NC(=O)c1ccccc1Cl | / | -4 | -5 | 2 | 3.7 | -1.1 | -2.6
CCCCN1C(=O)C(=O)N(CC(=O)N2CCc3ccccc32)C1=O | / | -3 | 0 | / | / | 0.8 | 3.0
Cc1noc(C)c1C(=O)N(C)Cc1ccccc1 | 1% | -2 | -8 | 11 | 2.6 | 0.3 | 0.2
Cc1c(Cl)cccc1NC(=O)CNc1ccccc1F | 18% | 0 | -19 | -2 | ? | -0.1 | 7.0
O=C(O)c1ccc(S(=O)(=O)N(Cc2ccccc2)C2CCCCC2)cc1 | / | 6 | 5 | 2 | -1.9 | 1.6 | 0.7
NCc1oc(-c2ccccc2)cc1C(=O)O | / | -2 | 4 | 25 | -2.6 | 4.5 | -4.0
CCC(CC)C(=O)Nc1ccc(C)c(O)c1 | 3% | 3 | 24 | -3 | -0.4 | 1.1 | -1.8
O=C(O)CCN1C(=O)c2ccc(NC(=O)Cc3ccc(Cl)cc3)cc2C1=O | -8% | 8 | -8 | -11 | ? | 3.0 | 6.5
CCn1c(=O)cc(O)c2c(=O)n(C)c(=O)n(C)c21 | 32% | -11 | 17 | -1 | 4.7 | 0.5 | -1.0
COCCNC(=O)CNC(c1ccccc1)c1ccccc1 | -3% | / | / | -5 | -2.6 | / | 0.0
O=C(NC1CCC(CC2CCC(NC(=O)C(Cl)Cl)CC2)CC1)C(Cl)Cl (stereo not given) | / | -5 | / | -7 | -2.8 | 5.2 | -3.3
C[N+]1(C2CCC3CCCC2C3O)CCCCC1 (stereo not given) | / | -6 | -2 | -10 | ? | -3.7 | 1.3
O=C(N/C(=C/c1cccnc1)C(=O)N1CCOCC1)c1ccco1 | -5% | 1 | 1 | 3 | -2.6 | 1.0 | 0.4
CCC(C)N1C(=O)CCC1C(=O)NCCc1ccc(Cl)cc1 (stereo not given) | -2% | 0 | 49 | 24 | 4.5 | -0.1 | -0.6
CC(=O)Nc1ccc(N(C(=O)c2ccco2)C(C(=O)NC2CCCC2)c2ccc(N(C)C)cc2)cc1 (stereo not given) | 9% | 0 | 14 | -6 | -0.5 | 0.6 | 1.5

Shown as labelled records: 4 of the compounds above.
> O=C(NC1CCC(CC2CCC(NC(=O)C(Cl)Cl)CC2)CC1)C(Cl)Cl (stereo not given)
  Vif A3G: /	Beta2AR agonist: -5	ALR H2O2 inh: /	Calb FLC: -7	RanGTP-Impb inh: -2.8	HNF4A DNA FP: 5.2	LANA-H2A inh: -3.3

> O=C(O)CCN1C(=O)c2ccc(NC(=O)Cc3ccc(Cl)cc3)cc2C1=O
  Vif A3G: -8%	Beta2AR agonist: 8	ALR H2O2 inh: -8	Calb FLC: -11	RanGTP-Impb inh: ?	HNF4A DNA FP: 3.0	LANA-H2A inh: 6.5

> O=C(O)c1ccc(S(=O)(=O)N(Cc2ccccc2)C2CCCCC2)cc1
  Vif A3G: /	Beta2AR agonist: 6	ALR H2O2 inh: 5	Calb FLC: 2	RanGTP-Impb inh: -1.9	HNF4A DNA FP: 1.6	LANA-H2A inh: 0.7

> CCCCN1C(=O)C(=O)N(CC(=O)N2CCc3ccccc32)C1=O
  Vif A3G: /	Beta2AR agonist: -3	ALR H2O2 inh: 0	Calb FLC: /	RanGTP-Impb inh: /	HNF4A DNA FP: 0.8	LANA-H2A inh: 3.0

Later entries.
SMILES | Vif A3G | Beta2AR agonist | ALR H2O2 inh | Calb FLC | RanGTP-Impb inh | HNF4A DNA FP | LANA-H2A inh
O=C(COc1ccc(Cl)cc1)NNC(=O)c1ccncc1 | / | 2 | / | / | / | -3.4 | 39*
O=C(Cc1ccccc1)NC(=S)Nc1ccc2oc(-c3ccccc3)nc2c1 | / | / | -14 | -12 | 1.1 | / | -5.1
N/C(=N\OC(=O)c1cc(Cl)ccc1Cl)c1cccnc1 | -10% | -13 | / | -27 | ? | -2.1 | 0.2
COc1ccccc1C(=O)NCCC(=O)NCC1COc2ccccc2O1 (stereo not given) | -3% | -6 | -8 | / | / | -0.2 | 23*
CCc1cccc2c1NC(=O)C2(O)CC(=O)c1cccs1 (stereo not given) | 8% | -1 | -4 | 0 | -9.6 | 1.8 | 3.7
CCc1nnc(NC(=O)c2ccc(S(=O)(=O)N(CC)CC)cc2)s1 | 10% | 6 | 15 | -9 | ? | -1.1 | -1.2
CCOC(=O)c1ccccc1NC(=S)N1CCC(N2CCCCC2)CC1 | 15% | -7 | 2 | -6 | -1.1 | -4.6 | -3.6
O=C(Cc1ccccc1)Nc1ccc(N2CCN(Cc3ccccc3F)CC2)cc1 | 7% | -5 | -1 | -15 | 6.7 | -2.4 | 2.5
CCC(=O)NC(=S)Nc1ccc(NC(=S)NC(=O)c2ccccc2)cc1 | -1% | -1 | / | 26 | -6.8 | -0.1 | /
O=CNc1cc2c(cc1Br)-c1ccccc1C2O (stereo not given) | 0% | 3 | / | / | / | 1.6 | /
CCN(CC)CCNC(=O)CNC(=S)N(CCCN1CCOCC1)Cc1cccs1 | ? | 4 | -1 | -5 | 0.4 | 1.5 | -4.1
Cc1ccc2nc(N3CCC(C(=O)O)CC3)nc(-c3ccccc3)c2c1 | 5% | 21 | 5 | 6 | 3.2 | 2.3 | 0.6
COc1cc(OC)cc(C(=O)N2CCN(C(=O)c3cccc(F)c3)CC2)c1 | ? | -8 | -20 | 0 | -0.2 | 0.6 | 0.8
COC(=O)CN(c1ccc(OC)c(OC)c1)S(C)(=O)=O | 4% | 3 | -15 | -3 | 1.7 | 6.0 | 0.1
Cc1cccc(Cn2nc(-n3cccc3)c3c(C)cc(C)nc32)c1 | -14% | -4 | 2 | 23 | 1.8 | 0.6 | 0.7
Cc1ccc(S(=O)(=O)N(CC(=O)NC2CCCCCC2)c2ccccc2F)cc1 | ? | -6 | -10 | -4 | 1.1 | 0.0 | 0.1
Cc1ccc(OCC(=O)Nc2cccc(S(=O)(=O)N3CCCCC3)c2)c([N+](=O)[O-])n1 | / | -15 | -2 | -7 | 0.1 | 0.6 | 6.9
CCOc1ccc(CNn2cnnc2)cc1 | 18% | 5 | -2 | 8 | -0.3 | -5.4 | -3.0
CC1(C)OC(c2ccccc2)=C/C(=C/C=N/NC(=O)c2ccncc2)O1 | 3% | 5 | 98* | 45 | -0.4 | -0.3 | 1.2
CCOC(=O)C1=C(N)Oc2ccc3ccccc3c2C1c1cccnc1 (stereo not given) | / | 9 | 0 | -54 | 0.1 | -0.1 | -8.4
COC(=O)c1ccc(C(=O)N(C)C2CCCN(Cc3ccccc3F)C2)cc1 (stereo not given) | / | -5 | -3 | -1 | -1.3 | 3.1 | -4.4
O=S(=O)(Nc1nc2ccccc2nc1Nc1ccc(N2CCOCC2)cc1)c1cc(Cl)ccc1Cl | / | 10 | 31 | 5 | 37* | -7.6 | -4.1

Compounds as they come, and some 6.3% of all compounds hit somewhere here.
